Assay outcomes as filed in PubChem BioAssay.
HPGD block = inhibitors of human 15-hydroxyprostaglandin dehydrogenase (HPGD); P15428; Potency, µM, without a hit: at the highest dose activity change, negative = inhibition, actives largely listed as inhibitors; 150,000 tested, 4.3% active; purified HPGD, NADH fluorescence kinetic, PGE2 substrate; AID 894; active = well fitted inhibition curve with a large enough effect (not every such curve was filed as active); inconclusive = small, poorly fitted or top-dose-only effect, or another doubt; inactive = no such curve, though single readings can be large or run the other way;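 further: top concentration of the series not given in the record; plate controls included wells without enzyme; inactives centre near -10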
Target sequence (P15428 whole entry, looked up): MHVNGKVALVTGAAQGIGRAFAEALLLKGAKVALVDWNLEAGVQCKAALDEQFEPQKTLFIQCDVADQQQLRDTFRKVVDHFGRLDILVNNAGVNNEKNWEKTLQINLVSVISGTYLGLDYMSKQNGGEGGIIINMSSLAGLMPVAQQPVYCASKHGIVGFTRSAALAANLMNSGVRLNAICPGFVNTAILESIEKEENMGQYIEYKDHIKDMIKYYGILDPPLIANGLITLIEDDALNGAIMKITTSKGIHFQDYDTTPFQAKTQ
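20 nM HPGD preincubated 15 min at room temperature with compound in 50 mM Tris-HCl pH 8, 0.01% Tween 20. Started with 1 mM NAD+ and 30 uM prostaglandin E2; NADH fluorescence (360/450 nm) read 5 times over 30-s intervals, last minus first.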
* marks the source's active call; other numbers are inactive results; ? = inconclusive; & = joins results of further samples. On the % scale 0 is the no-effect control and ±100 the full control effect; potency means the concentration at half of the fitted maximal effect.

SMILES | HPGD block
CCC(Oc1ccccc1)C(=O)NCCOC (stereo not given) | -9.4%
Cc1ccc(C2CC(c3ccccc3OC(F)F)Nc3ncnn32)cc1 (stereo not given) | -7.0%
Cc1cc(C(=O)N/N=C/c2cccs2)no1 | -14.0%
CCC(Oc1ccccc1)C(=O)N(Cc1ccccc1)c1ccccn1 (stereo not given) | 0.3%
CC(=O)N1CCc2cc(NC(=O)c3ccc(C)cc3)ccc21 | -8.6%
Cc1nc(CC(=O)O)c(-c2ccccc2)s1 | -6.3%
Cc1nc(SCC(=O)c2ccccc2)n[nH]1 | ?
Cc1cccc(/C=C2\CS/C(=C\c3cccc(C)c3)C2=O)c1 | -8.5%
CCCCC[C@H](O)C/C=C1/C(=O)C=C[C@@H]1C/C=C\CCCC(=O)O | ?
O=C(N/N=C\c1cn(-c2ccccc2)nc1-c1ccccc1)c1ccc2c(c1)OCO2 | -21.9%
Cc1n[nH]c(C)c1CCc1nc2c3ccccc3nc(SCC(N)=O)n2n1 | -8.9%
Cn1c(=O)c2c(nc(N3CCN(c4ccccn4)CC3)n2Cc2ccc(Cl)cc2Cl)n(C)c1=O | -5.9%
CCOC(=O)c1cc2c(ccn2C)n1CC(=O)N(Cc1ccccc1)c1ccc(F)cc1 | -22.4%
COCCn1c(SC)nnc1-c1c[nH]c2ccccc12 | -2.2%
CCCn1nnnc1SCC(=O)N1CCCC1 | -3.6%
COc1cc(C(=O)Nc2c(-c3ccccn3)c(=O)c3ccccc3n2C)cc(OC)c1OC | -20.0%
CC(=O)OC(C(=O)NC1CCCCC1)c1ccc(C#N)cc1 (stereo not given) | 0.5%
CCOc1cc2[nH]c(=O)n(CCCC(=O)NCc3ccco3)c(=O)c2cc1OCC | -29.8%
CC1=CC(C)(C)N(C(=O)CSc2ncn[nH]2)c2ccc(C)cc21 | -5.4%
CNC(=S)N/N=C/c1c(C)nn(-c2ccccc2)c1Cl | ?
S=c1[nH]nc(-c2ccc(Cl)cc2)n1CC1CCCO1 (stereo not given) | -6.0%
O=C(Cn1cnc([N+](=O)[O-])c1)NC1CCCC1 | -4.9%
Cc1ccc(S(=O)(=O)N2CCN=C2c2ccccc2)cc1C | -3.7%
Cn1c(=O)c2nc(-c3ccc(Cl)cc3Cl)oc2c2ccccc21 | ?
CCN1CCN(c2nc3c(C)cccn3c(=O)c2/C=C(\C#N)S(=O)(=O)c2ccccc2)CC1 | -11.6%
c1ccc2[nH]c(CSc3nnc(-c4ccncc4)o3)nc2c1 | -18.1%
O=C(O)c1cccc(NC(=O)C23CC4CC(C2)CC(n2cnc(Cl)n2)(C4)C3)c1 | 0.4%
COc1ccc(NC(=O)C(c2ccccc2)N(C)C(=O)c2cnccn2)cc1 (stereo not given) | -20.5%
CC(C)CNS(=O)(=O)c1ccc(NC(=O)Cn2nc(-c3ccc(F)cc3)ccc2=O)cc1 | 7.94µM*
NC(=O)CS(=O)C[C@H](N)C(=O)O (stereo not given in full) | -3.6%
Cc1cc(C)nc(/N=C(\N)Nc2ccc([N+](=O)[O-])cc2)n1 | -1.2%
N=c1n(CCN2CCCC2)c2ccccc2n1CC(O)c1ccco1 (stereo not given) | 0.0%
COC(=O)C1=C(C)N(c2ccc(C)cc2)/C(=C/c2cccs2)C1=O | -23.5%
Nc1c(C(=O)NCC2CCCO2)sc(=S)n1-c1ccccc1 (stereo not given) | 25.1µM*
C/C(=N\NC(=O)C1COc2ccccc2O1)c1ccccn1 (stereo not given) | -12.4%
O=C(Nc1ccc(N2CCOCC2)cc1)Nc1ccc(Cl)c(Cl)c1 | -10.6%
COc1cccc(N2CCN(C(=O)c3ccc(=O)oc3)CC2C)c1 (stereo not given) | ?
CC(NC(=O)c1noc2c1CCCCC2)c1ccccc1 (stereo not given) | -12.8%
CC1(C)CC2CC(C)(CN2C(=O)NC(=O)c2ccccc2)C1 (stereo not given) | -0.4%
Cc1ccc(NC(=O)COc2ccc(Br)cc2C)cc1 | -4.3%
COCCN1C(=O)N[C@@H](c2ccccc2)C(C(C)=O)=C1C | -3.2%&-6.3%
CCn1nc(C)cc1-c1n[nH]c(=S)n1N | -16.0%
CCCCC(=O)NC1=NC(=O)C(C)(C)S1 | -7.7%
Cc1nc(C)c(C(=O)Nc2ccc(Oc3ccccc3)cc2)o1 | -17.8%
CCN(C(=O)COc1ccccc1[N+](=O)[O-])C1CCS(=O)(=O)C1 (stereo not given) | 6.7%
Cc1ccc(C(=O)Nc2nc(=O)n(C(=O)c3ccccc3C)s2)cc1 | -11.8%
COc1ccc(OCC(=O)Nc2cccc(NC(=O)COc3ccc(OC)cc3)n2)cc1 | -9.6%
N[C@H](CC(=O)O)C(=O)O | -6.6%
OCCN(CCO)CC(O)COc1ccc2c(c1)OCO2 (stereo not given) | -6.0%
Nc1nn(S(=O)(=O)c2ccccc2)cc1-c1ccc([N+](=O)[O-])cc1 | ?
COc1cc(/C=N/NC(=S)Nc2cccc(Cl)c2C)ccc1OCC(=O)N1CC(C)OC(C)C1 (stereo not given) | -21.2%
COc1cc(C)c(Cl)cc1S(=O)(=O)NCC1CCCO1 (stereo not given) | 2.1%
O=C(CSc1nnc2ncccn12)N1CCCCCC1 | ?
CN(C)c1ccc(NC(=O)c2ccc3nsnc3c2)cc1 | -14.7%
O=C(NC1CCCC1)C(c1ccc(F)cc1)N(C(=O)Cc1cccs1)c1ccc2c(c1)OCCO2 (stereo not given) | -12.4%
O=C(Nc1ccc2c(c1)OCCO2)N1CCN(c2ccc(F)cc2)CC1 | -7.2%
COc1ccc(C2CC(C(F)(F)F)n3nc(C(=O)O)c(Cl)c3N2)cc1OC (stereo not given) | -15.5%
COc1ccc(N2C(=O)CC(Sc3nnc(-c4ccccc4)o3)C2=O)cc1 (stereo not given) | 22.4µM*
CC(C)=C(NC(=O)c1ccco1)C(=O)NCCc1nc2ccccc2[nH]1 | -1.2%
COC(=O)c1c(NC(=O)c2ccccc2)sc(C(=O)c2ccccc2)c1C | -24.1%

Molecules shown so far that have a cyano group, in the order listed:
SMILES | HPGD block
CC(=O)OC(C(=O)NC1CCCCC1)c1ccc(C#N)cc1 (stereo not given) | 0.5%
CCN1CCN(c2nc3c(C)cccn3c(=O)c2/C=C(\C#N)S(=O)(=O)c2ccccc2)CC1 | -11.6%

(cont.)
SMILES | HPGD block
O=C(/C=C/c1ccc(OC(F)F)cc1)OCC(=O)N1CCN(C(=O)c2ccco2)CC1 | -6.5%
O=C(O)c1ccc(NCc2cccnc2)cc1 | -5.5%
O=C(O)CCCN1C(=O)NC2NC(=O)NC21 (stereo not given) | -1.4%
Cc1c(C(=O)Nc2cccc(Cl)c2)oc2ccc(S(=O)(=O)N3CCC4(CC3)OCCO4)cc12 | ?
COc1ccccc1-n1c(C)nnc1SCC(=O)NCc1ccccc1 | -15.0%
O=C(Nc1nc(-c2ccc3c(c2)OCO3)cs1)C1CC1 | -17.4%
Cc1sc2nc(CSCC(=O)N(C)c3ccccc3)[nH]c(=O)c2c1C | -4.5%
CCOc1cc2[nH]c(=S)n(CCC(=O)NCc3ccc(OC)cc3)c(=O)c2cc1OCC | -19.7%
O=C(CSc1nc2cc(Cl)ccc2c(=O)n1Cc1ccco1)Nc1ccc(S(=O)(=O)N2CCOCC2)cc1 | -8.8%
C/C(N)=C(/C#N)C(=O)COc1ncnc2ccccc12 | 1.4%
CC(=O)c1ccc(NC(=O)c2ccc(S(=O)(=O)c3ccccc3)cc2)cc1 | -11.7%
CCC(C)(C)n1nnnc1C(c1ccc(Cl)cc1)N1CCN(C)CC1 (stereo not given) | -5.9%
COc1cc(OC)c2c(=O)c(-c3ccc4c(c3)OCO4)coc2c1 | -3.4%
O=C(NC(=S)Nc1ccccc1N1CCOCC1)c1ccc(-c2cccc(Cl)c2)o1 | -6.9%
COc1ccc(N2C(=O)[C@@H]3[C@H](C2=O)[C@H]2c4ccccc4C=CN2[C@@H]3C(C)=O)cc1 | ?
O=c1[nH]c2cnccc2n1-c1ccccc1 | -11.9%
CCOC(=O)c1cnc2c(Cl)cccc2c1NCCN(C)C | -13.2%
CCCC(=O)NCCc1cc2ccc(C)c(C)c2[nH]c1=O | ?
CCC[C@@H]1C[C@@]1(CCC)[C@@H](NC(=O)c1ccccc1)c1ccc(C(=O)OC)cc1 | -17.7%&-16.6%
CCOC(=O)c1ccc(NC(=O)CSc2nnc(C3CCCCC3)n2C)cc1 | -6.6%

3 compounds out of the list, ordered by heavy-atom count, rising.
SMILES | HPGD block
Cc1sc2nc(CSCC(=O)N(C)c3ccccc3)[nH]c(=O)c2c1C | -4.5%
CCC[C@@H]1C[C@@]1(CCC)[C@@H](NC(=O)c1ccccc1)c1ccc(C(=O)OC)cc1 | -17.7%&-16.6%
O=C(NC(=S)Nc1ccccc1N1CCOCC1)c1ccc(-c2cccc(Cl)c2)o1 | -6.9%

The list continues.
SMILES | HPGD block
CCCOCCOC(=O)C1=C(C)NC(=O)NC1c1cc(Cl)c(O)c(OC)c1 (stereo not given) | -7.7%
COc1cccc(/C=N/NC(=O)CC(=O)NCCc2ccccc2)c1OC | ?
O=C(Cc1ccc(-c2ccccc2)cc1)NCCN1CCOCC1 | -5.1%
COc1cc(N(C(=O)Cc2cccs2)C(C(=O)NC2CCCCC2)c2ccc(C)cc2)ccc1-n1cnnn1 (stereo not given) | -11.7%
OC1CCN(c2c3c(nc4cc(-c5ccc(Cl)cc5)nn24)CCC3)CC1 | -9.5%
COc1ccccc1NS(=O)(=O)c1cccc(C(=O)N/N=C2\CC(=O)CC(C)(C)C2)c1 | -19.8%
CCn1c(=O)c(C(=O)Nc2ccccc2S(N)(=O)=O)c(O)c2ccccc21 | -2.1%
Cc1nnc(SCc2nnc(-c3ccc(Cl)cc3)o2)n1-c1ccccc1 | -12.4%
COc1ccc(CC(=O)N2N=C(C)CC2(O)c2cccnc2)cc1 (stereo not given) | -2.1%
O=C(/C=C/c1cccc(Br)c1)NCC1CCCCC1 | -22.3%
O=C(COc1ccccc1)Nc1cc(C(F)(F)F)ccc1N1CCCC1 | -5.5%
CCSc1nc2c(c(=O)n1-c1ccc(F)cc1)SCC2 | -8.5%
COC(=O)[C@H](COC(C)(C)C)NC(=O)O[C@@H]1C(=O)c2ccc(OC)cc2O[C@H]1c1ccc2c(c1)OCO2 | -5.2%
Cc1nonc1OCCn1nnnc1N | -13.4%
CCc1ccccc1NC(=O)Cn1nc(C(F)(F)F)cc1C1CC1 | 2.3%
Cc1ccc(/C=C2/C(=O)N=C(N)N2C)s1 | -11.1%
CCN(CC)S(=O)(=O)c1ccc(C(=O)Nc2cccc(C)c2)cc1 | -11.1%
COc1cccc(-n2cnc3cccc(N)c32)c1 | -15.6%
O=C(c1ccc2snnc2c1)N1CCOCC1 | -7.0%
COc1ccc(NC(=O)CSC2CC(=O)N(c3ccc4c(c3)OCCO4)C2=O)cc1 (stereo not given) | 1.7%
N#CC1=C(N)N(c2ccccc2)C2=C(C(=O)CCC2)C1c1ccccc1 (stereo not given) | -8.9%
COc1ccc(CCNC(=S)Nc2cccc3ccccc23)cc1 | -7.7%
Cc1ccc(S(=O)(=O)Nc2nc(C)c(C(=O)Nc3ccccc3)s2)cc1 | -5.8%
O=C(CSc1nnnn1-c1cccc2ccccc12)Nc1ccc(N2CCOCC2)c(Cl)c1 | -6.4%
O=C(CN1CCOCC1)Nc1nc2ccc(Br)cc2s1 | -22.1%
O=C(NCc1ccc(F)cc1)c1noc2c1CCCCC2 | -27.5%
O=C(Cn1c(=O)oc2ccccc21)N1CCCCC1 | -10.7%
O=C(NCCc1ccccc1)C1CCCN(C(=O)NC2CCCCC2)C1 (stereo not given) | -6.2%
CCCCCCCCCCCCC/C=C\[C@@H](O)[C@H](CO)NC(C)=O | -9.1%
Cc1cccc(NC(=O)Cn2c(=O)oc3ccccc32)c1 | -22.8%
CC(=O)Nc1ccc(S(=O)(=O)NNC(=O)COc2ccc(C(C)(C)C)cc2)cc1 | 0.6%
O=C(Nc1nc(-c2ccc3c(c2)OCO3)cs1)C1COc2ccccc2O1 (stereo not given) | -10.8%
O=C(COC(=O)c1cnccn1)c1ccccc1 | -4.5%
COc1ccc(S(=O)(=O)N[C@@H](CC(C)C)C(=O)O)cc1 | -6.3%
O=C(Cn1c(=O)oc2ccccc21)N1CCN(c2ccccc2)CC1 | -8.8%
O=C(COC(=O)c1ccccc1)NCc1ccco1 | -10.8%
Cc1onc(-c2ccccc2Cl)c1C(=O)N1CC(C)OC(C)C1 (stereo not given) | -6.1%
Cc1cc(C(=O)Nc2c(C)cccc2C)n(-c2ccccc2)n1 | -6.1%
Cc1nc2cnc(Oc3ccccc3)nc2n(CCc2ccccc2)c1=O | -3.1%
O=C(O)c1ccc(Cl)c(S(=O)(=O)Nc2ccccc2F)c1 | -6.9%

Already shown: an excerpt of the list.
SMILES | HPGD block
Cc1nc2cnc(Oc3ccccc3)nc2n(CCc2ccccc2)c1=O | -3.1%
O=C(O)c1ccc(Cl)c(S(=O)(=O)Nc2ccccc2F)c1 | -6.9%

An excerpt of these results, as a markdown table.
| canonical_smiles | HPGD block |
| --- | --- |
| Cc1ccc(S(=O)(=O)Nc2nc(C)c(C(=O)Nc3ccccc3)s2)cc1 | -5.8% |
| O=C(Cn1c(=O)oc2ccccc21)N1CCCCC1 | -10.7% |
| O=C(COC(=O)c1cnccn1)c1ccccc1 | -4.5% |
| CC(=O)Nc1ccc(S(=O)(=O)NNC(=O)COc2ccc(C(C)(C)C)cc2)cc1 | 0.6% |
| N#CC1=C(N)N(c2ccccc2)C2=C(C(=O)CCC2)C1c1ccccc1 (stereo not given) | -8.9% |
| O=C(CN1CCOCC1)Nc1nc2ccc(Br)cc2s1 | -22.1% |

Continuation:
SMILES | HPGD block
COc1ccc(CN2C(=O)C(O)(CC(=O)c3c(C)n[nH]c3C)c3ccccc32)cc1OC (stereo not given) | -3.6%
COC(=O)COC(=O)c1ccc(Oc2nc(OC)nc(N(C)C)n2)cc1 | -13.2%
CCN(CC)C(=O)c1sc2[nH]c(=S)n(-c3ccccc3)c(=O)c2c1C | 28.2µM*
CCCCNC(=S)N(Cc1c(C)noc1C)c1ccccc1 | -15.2%

A portion of the library, so the mix of outcomes need not match the whole.
